Source: PubChem
Tg IFNy HTS = inhibitors of Toxoplasma gondii growth with IFN-gamma; AID 1259416; activity change, negative = inhibition, %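 (about 20 µM by stock and volumes)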; actives 3.8% (n = 69,000); Toxoplasma gondii growth in IFN-gamma-treated host cells; hits give low values; reference of the scale not given here;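 active = below -70%; inconclusive = fit judged invalid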;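 also: host cells are HeLa cells infected with Toxoplasma gondii; parasite growth read as luciferase light; one replicate is shown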
Starred values were filed as active, the others as inactive; i = inactive; ? = inconclusive. A portion of the library; count on the stated rates, not on these rows.

item	SMILES	Tg IFNy HTS
1	O=C(Nc1ccc(N2CCCS2(=O)=O)cc1)c1ccc2nc(C(F)(F)F)[nH]c2c1	-52
2	CCc1cc(C(=O)Nc2nc3c(s2)CCCCCC3)n(C)n1	-20
3	CCN1c2cc(C)ccc2-n2cccc2C12CCN(C(=O)c1ccccc1Br)CC2	-1
4	CCCNC(=O)c1cncc(N(C)S(=O)(=O)c2ccc(C)cc2)c1	1
5	COc1ccc(CN2CC[C@@H]3CO[C@H](CNC(=O)C4CC4)[C@@H]3C2)cc1	3
6	Cc1ncc2c(c1C(=O)O)CCN(Cc1ccc3c(c1)OCO3)C2	8
7	CCOC(=O)c1cc(C2CC2)nc2c1c(=O)n(Cc1nc(-c3ccccc3)oc1C)c(=O)n2C	-59
8	O=C(NCCNc1cccnc1)c1nc2ccccc2[nH]1	7
9	CO[C@H]1CN(C)C(=O)c2cc(NC(=O)CC(F)(F)F)ccc2OC[C@@H](C)N(CC2CC2)C[C@@H]1C	-27
10	CN(Cc1ccccc1N1CCOCC1)C(=O)C1OCCc2ccccc21 (stereo not given)	-30

Overlap with the part before: two entries, followed by the next part.
item	SMILES	Tg IFNy HTS
9	CO[C@H]1CN(C)C(=O)c2cc(NC(=O)CC(F)(F)F)ccc2OC[C@@H](C)N(CC2CC2)C[C@@H]1C	-27
10	CN(Cc1ccccc1N1CCOCC1)C(=O)C1OCCc2ccccc21 (stereo not given)	-30
11	Cc1nc(C)c(C(=O)N2C[C@H](c3ccc(F)cc3)[C@@H]3[C@H]2CCCN3C)s1	-2
12	CCOCC1CN(Cc2cc(C)on2)Cc2cn(C)nc21 (stereo not given)	-34
13	c1ccc(-c2nccn2CC2CCN(C3CCCC3)CC2)nc1	2
14	Cc1ccc2c(c1)C1(CC2)CCN(CC(=O)O)CC1	6
15	O=C(CN1CCOc2ccccc2C1)NCc1nnc2n1CCC2	1
16	Cn1ccnc1CN1CCC(c2ccnc(-c3cccc(O)c3)c2)C1 (stereo not given)	1
17	Cc1cc(C)cc(CSCC(=O)N2CCCC(N(C)C)CC2)c1 (stereo not given)	-7
18	Cc1ccc(N2CCC[C@]3(C(=O)O)CN(CCN(C)C)C[C@H]3C2)nn1	-50
19	CCc1cn[nH]c1C1CCN(CC(=O)O)CC1	0
20	O=Cc1ccc(OC(=O)c2cccnc2)cc1	20
21	C[C@@H]1CCCCO[C@H](CN(C)S(=O)(=O)c2ccc(Cl)cc2)[C@H](C)CN([C@@H](C)CO)C(=O)c2cc(NC(=O)Nc3ccc(C(F)(F)F)cc3)ccc2O1	-56
22	CCc1cn[nH]c1C1CCN(C(=O)CCc2ccc(=O)[nH]n2)CC1	6
23	CN(Cc1noc(C2CCC2)n1)Cc1ncccc1C(=O)O	-1
24	CN1C[C@@H]2C3(CCN(C(=O)Nc4ccccc4)CC3)CC[C@@]2(C(=O)N2CCCC2)C1	7
25	CCC(C(=O)O)c1ccc(N2Cc3ccccc3C2=O)cc1 (stereo not given)	174
26	O=c1cc(Cn2ccnc2)nc2n1CCCN(Cc1cccs1)C2	-3
27	Cc1ccc2c(c1C)-n1cccc1C1(CCN(S(=O)(=O)c3cccc(F)c3)CC1)N2	-1
28	CN(C)Cc1nn(C)c2c1CCN(C(=O)CC1CC1)C2	i
29	CC(C)CN(Cc1ccsc1)C(=O)c1coc(CN2CCOCC2)c1	1
30	CCN1c2ccccc2[C@@H]2CN(C(=O)C3CC3)CC[C@H]21	72
31	COc1ccc2c(c1)NC1(CCN(C(=O)c3ccc(OC)c(OC)c3)CC1)c1cccn1-2	58
32	CCN1CCC2(CC1)OC(=O)C(C)=C2C(=O)Nc1ccc(C)cc1C	90
33	OCc1nnn2c1CN(Cc1cccs1)CCC2	40
34	O=C(c1cccnc1)N1CC2(C1)[C@H](c1ccccc1)[C@@H](CO)N2Cc1ccc(Cl)cc1	-2
35	CCc1cn[nH]c1C1CCN(C(=O)c2nnc3nc(C)ccn23)CC1	2
36	C[C@H]1CN([C@@H](C)CO)C(=O)c2ccccc2-c2ccccc2CO[C@H]1CN(C)C(=O)[C@H]1CCCN1C	26
37	CCS(=O)(=O)c1ccc(O)c(NC(=O)c2ccccc2C(=O)O)c1	32
38	COCCN1CCc2ncnc(-c3cnn(C)c3)c2CC1	6
39	CC(=O)N1C(Cn2cccn2)CC2CN(S(C)(=O)=O)CCC21 (stereo not given)	3
40	Cc1ccc(-c2nnc(-c3nc(Nc4ccc(F)cc4)c4ccccc4n3)o2)cc1	149
41	O=C(NC(Cc1cccs1)c1nccs1)c1cccnc1 (stereo not given)	-67
42	O=C1CC(c2ccccc2)C2(CCN(C(=O)C3CCOC3)CC2)N1 (stereo not given)	-7
43	Cc1ccnc(CC(C)N(C)C(=O)CCc2ccc(F)c(F)c2)c1 (stereo not given)	7
44	O=C(C(c1cccnc1)N1CCOCC1)N1C[C@@H]2C3CCC(CC3)[C@@H]2C1 (stereo not given in full)	0
45	Cc1ccc(Cl)cc1NC(=S)NCCO	41
46	CC(C)=CCOc1ccc(/C=C/C(=O)c2ccc(OCC=C(C)C)cc2OCC(=O)O)cc1	-11
47	CCC(=O)N1C[C@H]2OC(=O)N(CCCc3ccc(OC)cc3)[C@H]2C1	6
48	Cc1ccc(C(=O)N2CCC3(CC2)C(=O)NCC3c2ccccc2)cn1 (stereo not given)	142
49	OCCN(Cc1cccs1)Cc1cc(F)ccc1O	-3
50	Cc1ccc(-c2cc(C(=O)NCc3nc(Cc4ccccc4)no3)no2)cc1	33
51	C[C@@H]1CN([C@H](C)CO)C(=O)c2cccc(N(C)C)c2O[C@@H]1CN(C)Cc1ccncc1	-30
52	O=C(C[C@H]1CC[C@@H]2[C@H](COC[C@@H](O)CN2CC2CCOCC2)O1)NCC1CCCCC1	-26
53	O=C(NCCNC1CCC2(CCNCC2)CC1)c1ccc(F)cc1	-2
54	Cc1nc(C(=O)NCC(=O)c2ccccc2)c(C(F)(F)F)o1	20
55	COC(=O)c1c(N2C(=O)C3CC(C)=C(C)CC3C2=O)sc(C)c1C (stereo not given)	17
56	O=C(c1cccs1)N(CCN1CCOCC1)C1CCN(c2ccc3c(c2)OCO3)CC1	-53
57	Cc1cc(C(=O)N2CCc3ccc(=O)n(CC4CC4)c3CC2)c(C)o1	8
58	Cc1occc1C(=O)N1CCn2c(CN3CCCC3=O)nnc2C1	11
59	CCOc1ccccc1NC(=O)c1nnn(Cc2nc(-c3ccccc3OC)oc2C)c1C	355
60	Cc1cccc(C)c1OC1CN(C(=O)C2CCOCC2)C1	2

Remaining list, next part.
item	SMILES	Tg IFNy HTS
61	O=C(NCc1ccccc1-n1ccnc1)c1cc(=O)[nH]c2ccccc12	10
62	CN(C)CC1(O)CCN(C(=O)CCc2c[nH]c3ccccc23)C1 (stereo not given)	-8
63	O=C(Nc1ccn(Cc2ccc(Cl)cc2Cl)n1)c1ccc(F)cc1	-97*
64	COc1cccc(CN2CCOC3(CCN(c4ncccn4)CC3)C2)c1	-3
65	CC(C)(C)C(=O)OCOC(=O)[C@@H]1N2C(=O)[C@@H](N=CN3CCCCCC3)[C@H]2SC1(C)C	15
66	N#Cc1ccc(C#CCOC(=O)Nc2ccc(OC(F)(F)F)cc2)cc1	34
67	O=C(CC1COCCN1)NCc1ccc(N2CCCC2=O)cc1 (stereo not given)	9
68	COC(=O)c1c(NC(=O)c2nc3nc(C)cc(C(F)F)n3n2)sc2c1CCCC2	?
69	CC(Cc1cc(=O)n2[nH]cc(-c3ccc(F)cc3)c2n1)n1nnc2ccccc21 (stereo not given)	2
70	N#C[C@H]1[C@@H](c2ccc(C3=CCCCC3)cc2)[C@@H](CO)N1C(=O)CN1CCOCC1	-17

71	CC(C)c1nccn1C(C)C(=O)N(C)Cc1n[nH]c2c1CCCCC2 (stereo not given)
  Tg IFNy HTS: 5
72	COc1ccc2c(CN(C)Cc3cccc4ncccc34)[nH]nc2c1
  Tg IFNy HTS: -11
73	COc1ccc(-c2nc3c(s2)CN(S(=O)(=O)c2ccc(NC(C)=O)cc2)CC3)cc1
  Tg IFNy HTS: -26
74	CCN(CC)S(=O)(=O)N1CCN(S(=O)(=O)c2c(C)n[nH]c2C)CC1
  Tg IFNy HTS: 11
75	Cn1sc(=O)c2cc(S(=O)(=O)NCCc3ccncc3)ccc21
  Tg IFNy HTS: 14
76	CO[C@@H]1CN(C)C(=O)c2cc(NC(C)=O)ccc2OC[C@H](C)N(S(C)(=O)=O)C[C@H]1C
  Tg IFNy HTS: 23
77	C[C@@H]1CN([C@H](C)CO)C(=O)CCCn2nncc2CO[C@H]1CN(C)C(=O)CCC(F)(F)F
  Tg IFNy HTS: 76
78	Cc1nn(C)c(C)c1CCC(=O)N(C)Cc1nc2ccc(Cl)cc2[nH]1
  Tg IFNy HTS: -9
79	CN1CCC2(CC1)CC(COCC1CC1)N(c1ncccn1)C2 (stereo not given)
  Tg IFNy HTS: -28
80	COc1ccccc1CNC(=O)CN(C)Cc1ncc(C)[nH]1
  Tg IFNy HTS: -3
81	C=CCn1c(=O)c(C(=O)Nc2cc(C)ccc2OC)c(O)c2ccccc21
  Tg IFNy HTS: 82
82	Cc1cc(C(=O)N2CCCC(c3ccc(Cc4ccc(Cl)cc4)cn3)C2)nc(N(C)C)n1 (stereo not given)
  Tg IFNy HTS: -90*
83	Cc1noc(C)c1S(=O)(=O)N1CCCC1c1ccccn1 (stereo not given)
  Tg IFNy HTS: 7
84	C=CCOc1ccccc1NC(=O)c1csc(C(C)=O)c1
  Tg IFNy HTS: 9
85	O=C1CNC[C@@H]2[C@H](c3ccc(C#Cc4cccnc4)cc3)[C@H](CO)N12
  Tg IFNy HTS: -39
86	CN(C)CCn1c2c(ccc1=O)CC(NCc1cnn(C)c1)CC2 (stereo not given)
  Tg IFNy HTS: -1
87	O=C(c1cc2sccc2n1Cc1ccc(F)cc1)N1CCc2ccccc21
  Tg IFNy HTS: 45
88	Cc1oc(-c2ccc(C(=O)NCCC3=CCCCC3)cc2)nc1CN1CCN(c2ccccc2)CC1
  Tg IFNy HTS: -50
89	Cc1noc(C)c1C(=O)NC1CCSC1 (stereo not given)
  Tg IFNy HTS: 7
90	O=C1CCC(c2cccs2)=C1CC(=O)N1CC[C@H](O)[C@@H](O)C1
  Tg IFNy HTS: -4
91	CCCN1C(=O)CCc2cc(NC(=O)c3cccs3)ccc21
  Tg IFNy HTS: ?
92	Cc1ccc(CNS(=O)(=O)c2cc3c4c(c2)CCN4C(=O)CC3)o1
  Tg IFNy HTS: -3
93	O=C(CCc1cccnc1)N1CCC2(CN(Cc3ccc(C(F)(F)F)cc3)C2)C1
  Tg IFNy HTS: -3
94	Fc1ccc(NC(=S)N2CCc3ccccc32)cc1
  Tg IFNy HTS: 21
95	Cc1ccc2c(c1C)-n1cccc1C1(CCN(C(=O)c3cccc(Cl)c3)CC1)N2
  Tg IFNy HTS: 31

96	COC(=O)[C@H]1C[C@@H](O)CCN1S(=O)(=O)N(C)C
  Tg IFNy HTS: 8
97	O=C(Nc1nc2cccc(-c3ccc(CN4CCS(=O)(=O)CC4)cc3)n2n1)C1CC1
  Tg IFNy HTS: 41
98	COc1ccc(CNC(=O)C[C@H]2CC[C@H](NC(=O)CN(C)C)[C@H](CO)O2)cc1
  Tg IFNy HTS: 6
99	COc1ccccc1OCCOc1ccc(N)cc1
  Tg IFNy HTS: 456
100	COc1ccccc1S(=O)(=O)N[C@H]1C=C[C@@H](CC(=O)N2CCOCC2)O[C@@H]1CO
  Tg IFNy HTS: 56
101	CN(C)c1ccc(-c2cc(-c3ccccc3)nc(-c3cc(Cl)ccc3O)c2)cc1
  Tg IFNy HTS: -38
102	CCCNC(=O)N1CC2(CN(Cc3cccnc3)C2)c2c(n(C)c3cc(OC)ccc23)[C@H]1CO
  Tg IFNy HTS: 16

Molecules shown so far that have an NH in an aromatic ring:
1	O=C(Nc1ccc(N2CCCS2(=O)=O)cc1)c1ccc2nc(C(F)(F)F)[nH]c2c1
  Tg IFNy HTS: -52
8	O=C(NCCNc1cccnc1)c1nc2ccccc2[nH]1
  Tg IFNy HTS: 7
19	CCc1cn[nH]c1C1CCN(CC(=O)O)CC1
  Tg IFNy HTS: 0
22	CCc1cn[nH]c1C1CCN(C(=O)CCc2ccc(=O)[nH]n2)CC1
  Tg IFNy HTS: 6
35	CCc1cn[nH]c1C1CCN(C(=O)c2nnc3nc(C)ccn23)CC1
  Tg IFNy HTS: 2
61	O=C(NCc1ccccc1-n1ccnc1)c1cc(=O)[nH]c2ccccc12
  Tg IFNy HTS: 10
62	CN(C)CC1(O)CCN(C(=O)CCc2c[nH]c3ccccc23)C1 (stereo not given)
  Tg IFNy HTS: -8
69	CC(Cc1cc(=O)n2[nH]cc(-c3ccc(F)cc3)c2n1)n1nnc2ccccc21 (stereo not given)
  Tg IFNy HTS: 2
71	CC(C)c1nccn1C(C)C(=O)N(C)Cc1n[nH]c2c1CCCCC2 (stereo not given)
  Tg IFNy HTS: 5
72	COc1ccc2c(CN(C)Cc3cccc4ncccc34)[nH]nc2c1
  Tg IFNy HTS: -11
74	CCN(CC)S(=O)(=O)N1CCN(S(=O)(=O)c2c(C)n[nH]c2C)CC1
  Tg IFNy HTS: 11
78	Cc1nn(C)c(C)c1CCC(=O)N(C)Cc1nc2ccc(Cl)cc2[nH]1
  Tg IFNy HTS: -9
80	COc1ccccc1CNC(=O)CN(C)Cc1ncc(C)[nH]1
  Tg IFNy HTS: -3
